Screening data (PubChem)
LASV entry inh – blocks Lassa virus binding to or entry into cells; Lassa virus pseudotype entry inhibition, cell reporter; control for the full effect not named in the record; 300,000 tested, 1.2% active; Potency, µM (titrated, usually from 37.9 µM), for the others: at the highest dose activity change, negative = inhibition, usual class: inhibitors; AID 540256; active means well fitted inhibition curve with a large enough effect; inconclusive means small, poorly fitted or top-dose-only effect, or effect the other way; inactive means flat fitted curve, though single readings scatter; tested in HEK293 cells; also: % is scaled to controls: 0 for no effect and ±100 for the full control effect; nearly all actives have a fitted effect of over 50% in size; luciferase read-out
StopGo reporter – lowers the luciferase signal of an FMDV 2A StopGo reporter; AID 1159524; Potency, µM (series often up to 57.9 µM), inactives show at the top dose signal change, negative = less light; human cells with a luciferase reporter of 2A StopGo recoding; control for the full effect not named in the record; 410,000 tested, 1.2% active; active = well fitted falling curve with a large enough effect; inconclusive = small, poorly fitted or top-dose-only effect; inactive = no such curve, though single readings can be large or run the other way; tested in HEK293T cells; also: % is scaled to controls: 0 for no effect and ±100 for the full control effect; nearly all actives have a fitted effect of over 45% in size; luciferase light after 4 h
Cruzain inh Det – blocks cruzain activity in presence of Triton detergent; Potency, µM, for inactives: max response, negative = inhibition, hits mostly inhibitors; purified cruzain, Z-FR-AMC fluorescence, 0.01% Triton; 200,000 tested, 0.43% active;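 also: plate controls were neutral wells for no effect and buffer without enzyme for full effect; nearly all actives have a fitted effect of over 40% in size; top concentration of the series not given in the record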
Target sequence (P25779 123-467 limits assumed): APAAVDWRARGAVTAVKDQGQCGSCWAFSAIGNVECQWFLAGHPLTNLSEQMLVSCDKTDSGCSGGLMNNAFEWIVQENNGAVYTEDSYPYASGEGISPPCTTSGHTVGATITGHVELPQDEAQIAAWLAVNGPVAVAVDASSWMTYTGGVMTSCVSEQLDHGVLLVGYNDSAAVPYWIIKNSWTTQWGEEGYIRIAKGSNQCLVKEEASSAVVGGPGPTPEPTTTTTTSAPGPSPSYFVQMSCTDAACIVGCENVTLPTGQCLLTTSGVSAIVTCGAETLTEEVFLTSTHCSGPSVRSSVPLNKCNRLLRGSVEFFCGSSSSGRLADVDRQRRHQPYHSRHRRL
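Cysteine protease activity tested under reducing, mildly acidic conditions (100 mM sodium acetate pH 5.5, 5 mM DTT) plus 0.01% Triton X-100. Cruzain 1.5 nM; substrate Z-FR-AMC 2 uM; 15 min compound preincubation at room temperature.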
Marburg entry inh – Marburg virus entry inhibition. Potency, µM (series often up to 37.8 µM), for the others: at the highest dose activity change, negative = inhibition, actives largely listed as inhibitors. AID 540276. Marburg virus pseudotyped entry inhibition, cell reporter; control for the full effect not named in the record; about a third of the inactives were read at about 46 µM. 300,000 tested, 1.8% active; active = well fitted inhibition curve with a large enough effect; inconclusive = small, poorly fitted or top-dose-only effect, or effect the other way; inactive = flat fitted curve, though single readings scatter; tested in HEK293 cells; about a fifth of its hits are not listed in these tables; also: % is scaled to controls: 0 for no effect and ±100 for the full control effect; luciferase read-out
RE007 growth inh – less growth of the S. pombe RE007 Vpr strain; S. pombe RE007 Vpr strain, BacTiter-Glo ATP luminescence, 24 h; control for the full effect not named in the record; Potency, µM (highest dose often 92.2 µM), without a hit: top-dose activity change, negative = less growth; 360,000 tested, 0.21% active; AID 651644; active = well fitted falling curve with a large enough effect; inconclusive = small, poorly fitted or top-dose-only effect; inactive = no such curve, though single readings can be large or run the other way;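 also: % is scaled to controls: 0 for no effect and ±100 for the full control effect; nearly all actives have a fitted effect of over 50% in size; the assay follows cell death caused by Vpr and the record does not say whether a fall means rescue or toxicity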
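Fission yeast RE007 carrying one integrated HIV-1 vpr copy, seeded at OD 0.01 in PMG+AL medium with 23 nL pinned compound. Grown 24 h at 30 degrees; viability read by BacTiter-Glo luminescence after 5 min.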
Cruzain noTriton – blocks cruzain activity in detergent-free assay; purified cruzain, Z-FR-AMC fluorescence, no detergent; Potency, µM, without a hit: max response, negative = inhibition, most hits filed as inhibitors; 200,000 tested, 2.3% active; AID 1476;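 also: plate controls were enzyme without inhibitor for no effect and buffer without enzyme for full effect; nearly all actives have a fitted effect of over 40% in size; top concentration of the series not given in the record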
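Detergent-free condition (0.00005% Triton X-100) in acetate buffer pH 5.5 with DTT. 1.5 nM enzyme and compound were pre-mixed 15 min, then 2 uM Z-FR-AMC substrate added; reaction progress from fluorescence change between first and third reads (60 s).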
SARS PLP yeast – blocks SARS-CoV papain-like protease in a yeast assay | S. cerevisiae expressing SARS-CoV PLpro, growth rescue; control for the full effect not named in the record | Potency, µM (top dose mostly 32.9 µM), without a hit: at the top dose activity, positive = growth rescue | 330,000 tested, 0.19% active | AID 485353; active means well fitted rising curve with a large enough effect; inconclusive means small, poorly fitted or top-dose-only effect; inactive means no such curve, though single readings can be large or run the other way; also: 0% is about no effect; nearly all actives have a fitted effect of over 55% in size; growth read by luminescence after 48 h
NS1 inh – blocks influenza NS1 protein function | S. cerevisiae slowed by influenza A NS1, growth recovery by OD600 | Potency, µM (series often up to 46.1 µM), for the others: at the highest dose activity, positive = more growth | 270,000 tested, 0.4% active | AID 2326; active means well fitted rising curve with a large enough effect; inconclusive means small, poorly fitted or top-dose-only effect; inactive means no such curve, though single readings can be large or run the other way; also: nearly all actives have a fitted effect of over 50% in size
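Growth recovery, yeast-based: influenza A NS1 expressed in S. cerevisiae causes slow growth, and suppressors are detected by OD600. The parent strain without NS1 is used as positive control.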
Active calls of the source: *; ? = inconclusive; . = no result given; & = joins results of further samples; [ ] = remark or other dose. Unless noted, calls follow the shape of the dose curve; as a rule, active = well fitted curve in the direction sought with a large enough effect; inconclusive = small, poorly fitted or top-dose-only effect, or another doubt; inactive = no such curve, though single readings can be large; an effect the other way counts as inactive or inconclusive. Potency is read from the fitted curve at half-maximal effect.

SMILES | LASV entry inh | StopGo reporter | Cruzain inh Det | Marburg entry inh | RE007 growth inh | Cruzain noTriton | SARS PLP yeast | NS1 inh
COc1ccc2c(c1)c1c(c(=O)n(-c3ccc(F)c(Cl)c3)c(=O)n1CC(N)=O)n2C | 1%[46.1 µM] | -13% | -2.8% | . | . | 7% | . | .
Cc1cccc(N2CCN(C3CCCCC3NS(=O)(=O)c3ccccc3)CC2C)c1 (stereo not given) | . | 0% | . | . | 2% | . | 2% | -16%
Cc1ccccc1C(=O)NCC(c1ccc(N(C)C)cc1)N1CCCC1 (stereo not given) | -6%[46.1 µM] | 23% | -1.1% | . | . | -7% | . | .
COc1ccc(-c2nsc(SCC(=O)Nc3ccc4c(c3)OCO4)n2)cc1 | ? | 5% | 0.5% | ? | -21% | ? | 11% | 14%
C=CCn1c(SCCCCCC)nc(O)cc1=O | 0% | 10% | -2.4% | 18% | 12% | -19% | -13% | ?
CCOc1cc(N2CCOCC2)c(OCC)cc1NC(=O)Cn1nc(C)c([N+](=O)[O-])c1C | -3% | -12% | . | 22%[46.1 µM] | 2% | . | 3% | .
CCCCOc1ccc(C(=O)NCC(c2ccc(Cl)cc2)N2CCOCC2)cc1 (stereo not given) | ? | -25% | -7.2% | 3%[46.1 µM] | . | ? | . | .
CCC(C)c1ccc(S(=O)(=O)N2CCN(c3ccccn3)CC2)cc1 (stereo not given) | -17% | -12% | . | -13% | 0% | . | -3% | -12%
CCN1CCN(c2ccc([N+](=O)[O-])cc2C=C2C(=O)NC(=O)NC2=O)CC1 | 22% | -7% | -0.9% | 19% | 1% | 11% | 18% | 5%
COc1ccccc1C1(O)CCN(CC(=O)Nc2c(C)nn(C)c2C)CC1 | -7% | 7% | 3.0% | 2% | 13% | -3% | -3% | -7%
Cc1cc[n+]2cc(-c3cccc([N+](=O)[O-])c3)c(-c3cccc([N+](=O)[O-])c3)cc2c1 | 1% | -28% | -28% | ? | -25% | ? | 4% | 10%
COc1ccc(CNC(=O)CCC2N=C3c4ccccc4N=C(SCC(=O)NCCc4ccc(OC)c(OC)c4)N3C2=O)cc1 (stereo not given) | 16%[46.1 µM] | -10% | -0.1% | . | . | 2% | . | .
Cc1cc(C)c(C(=O)COC(=O)c2cccc(S(=O)(=O)NCc3ccccc3)c2)cc1C | ? | 33%[activator] | -6.3% | ? | -4% | -11% | 15% | 26%
CCOc1ccc(S(=O)(=O)Nc2ccc3c(c2)OCO3)cc1 | -23% | 10% | . | -2%[46.1 µM] | 0% | . | -2% | 2%
O=C(Nc1nnc(-c2ccco2)s1)C1CCN(S(=O)(=O)c2ccc(Cl)cc2)CC1 | -14% | . | 1.3% | -1%&-26% | -4% | -25% | 4% | -8%
COC(=O)c1ccc(Cl)cc1NC(=O)NCc1c(-n2cccc2)sc2c1CCCC2 | -21%[46.1 µM] | -23% | -9.5% | 0%[46.1 µM] | . | -16% | . | .
CCS(=O)(=O)N1CCC(C(=O)Oc2ccc(Cl)cc2)CC1 | -5% | 1% | . | -15% | 24% | . | -1% | 18%
Cn1c(O)c(N=NC(=O)CNC(=O)c2ccccc2)c2cc(Br)ccc21 | . | -4% | . | -27%[46.1 µM] | 10% | . | 0% | 6%
CC(C)(C)CC(=O)Nc1nnc(CCc2ccccc2)s1 | ? | 31%[activator] | . | ? | 13% | . | 0% | 8%
Cn1cccc1C1NC(=O)c2c(sc3c2CCC(C(C)(C)C)C3)N1 (stereo not given) | 5% | 14% | -17% | 20%&20% | -18% | -24% | -12% | -3%
CCc1nc(OCc2ccccc2)c2sc3nc4c(cc3c2n1)COC(C)(C)C4 | 22%[14.3 µM] | 18% | -0.6% | 16µM* | 12% | ? | -4% | 4%
CC1=C(C(=O)Nc2ccccc2C)C(c2ccc(C)o2)N2C(=O)CSC2=N1 (stereo not given) | -30%[14.3 µM] | -16% | -1.5% | 7% | -1% | -10% | -8% | ?
N#CC(C(=O)NCCc1ccccc1)c1nc2ccccc2nc1N1CCCCC1 (stereo not given) | 5% | 2% | -4.8% | -4% | 3% | ? | 1% | 10%
O=C(NCC1c2ccccc2CCN1C(=O)CN1CCOCC1)C1CCCCC1 (stereo not given) | 28% | 22% | -2.2% | 2% | 4% | -9% | -2% | 0%
Cc1ccc2cc(C#N)c(NCc3ccccc3)nc2c1 | -4% | -5% | . | 23%[46.1 µM] | 0% | . | 0% | -2%

Next part:
SMILES | LASV entry inh | StopGo reporter | Cruzain inh Det | Marburg entry inh | RE007 growth inh | Cruzain noTriton | SARS PLP yeast | NS1 inh
O=C(NC1CCCCCCC1)c1ccc(F)cc1 | -1%[46.1 µM] | 12% | . | ? | -15% | . | -1% | -8%
Cc1ccccc1NC(=O)CSc1nc2ccccc2c2nc(CCn3cncc3C)nn12 | 4%[46.1 µM] | ? | -0.2%&-0.7% | ? | 3% | 2%&-3% | 2% | 3%
Oc1[nH]c2ccc(Br)cc2c1N=Nc1nn[nH]n1 | . | 11% | . | . | -7% | . | 1% | -1%
COc1cccc(-c2nn(-c3ccccc3)cc2CN(C)Cc2ccon2)c1 | . | 8% | . | . | 4% | . | -1% | -8%
COC(=O)C1CCN(C(=O)NC(C)(C)C)CC1 | 4% | -12% | 1.0% | ? | -14% | -6% | -10% | -1%
CCCN(CCC)c1ccc(C(O)c2nnc(-c3ccccc3)o2)cc1 (stereo not given) | 6%[46.1 µM] | 18% | . | 4%[46.1 µM] | 10% | . | -9% | .
CCOc1cc(-c2nnc(SCC(=O)Nc3ccc(F)c(F)c3)nc2-c2ccc(OC)c(OCC)c2)ccc1OC | 8%[46.1 µM] | -29% | 0.7% | . | . | 12% | . | .
CC(C)C(C(=O)OCC(=O)c1ccccc1)N1C(=O)C2C3C=CC(C3)C2C1=O (stereo not given) | 3% | -7% | . | 9% | -9% | . | 0% | -8%
CCOC(=O)c1ccc(NC(=S)N(CCCN2CCN(CC)CC2)Cc2cccs2)cc1 | 10µM* | 46%[activator] | . | 10µM* | 1% | . | 1% | ?
Cn1cc(C(=O)NCC2COc3ccccc3O2)c(=O)c2cc(S(=O)(=O)N3CCCCC3)ccc21 (stereo not given) | -30% | . | -4.6% | ? | 26% | ? | 14% | 13%
CCOc1ccc(-n2c(-c3ccoc3)nc3ccccc3c2=O)cc1 | -10% | ? | -2.1% | -3% | -10% | 6% | 9% | 2%
COc1ccc(O)c(CN2CCN(C/C=C/c3ccccc3)CC2)c1 | 2% | -12% | 3.4% | ? | 1% | 6% | 2% | -23%
Cc1ccc(OCCC(=O)OCC(=O)Nc2ccc(C)c(S(=O)(=O)N3CCOCC3)c2)cc1 | ? | -11% | . | 5% | -9% | . | . | .
CN(C)CCNC(=O)Nc1ccc(Cl)c(Cl)c1 | 16% | -17% | -14% | ? | 12% | -3% | ? | -1%
COc1cccc2c1OC1(C)CC2NC(=O)N1Cc1ccccc1 (stereo not given) | -12% | -20% | 0.0% | -2% | -1% | -7% | 0% | -4%
COc1ccc(C(=O)Nc2nncs2)cc1S(=O)(=O)N1CC(c2ccccc2)CC1=O (stereo not given) | . | -15% | -3.1% | . | 1% | 0% | -3% | -40%
COC(=O)c1ccc(NS(=O)(=O)c2ccc3c(c2)n(C)c(=O)n3C)cc1 | -8% | 14% | . | -2% | 6% | . | 0% | 3%
CC(=O)Nc1c(C(=O)O)[nH]c2ccccc12 | 13% | -5% | 3.0% | 4% | 7% | -14% | -5% | 2%
COc1ccc(-n2c(SCC(=O)Nc3nccs3)nnc2-c2ccoc2C)cc1 | -3% | -9% | 1.0% | 5%[46.1 µM] | 21% | -3% | -12% | -2%
Oc1c(C(Nc2nc3ccccc3s2)c2ccco2)ccc2cccnc12 (stereo not given) | ? | 26% | 0.8% | ? | ? | 7.9µM* | -4% | -179%
CCCCc1ccc(-c2csc(/C(C#N)=C\c3ccco3)n2)cc1 | 5% | -4% | -6.9% | ? | -5% | -10% | -12% | -8%
COc1ccc2c(c1OC)C(=O)N(c1cccc(C)c1)C2=O | 17% | 35%[activator] | 0.0% | 10% | -9% | 0% | -17% | -53%
Cc1c(O)ccc(NS(=O)(=O)c2ccccc2)c1C | 8% | -10% | . | ? | 9% | . | -1% | -10%
O=c1[nH]nc(-c2ccc(F)cc2)cc1Cc1ccc(F)cc1 | . | -5% | . | . | 18% | . | -4% | 2%
Cc1cc(C(F)(F)F)nn1Cc1n[nH]c(=S)n1-c1ccc(F)cc1 | ? | -18% | -1.7% | 1% | -1% | -7% | 18% | -5%

Next section:
SMILES | LASV entry inh | StopGo reporter | Cruzain inh Det | Marburg entry inh | RE007 growth inh | Cruzain noTriton | SARS PLP yeast | NS1 inh
O=C(CN1CCN(Cc2ccccc2)CC1)NCc1ccccc1Cl | -29%[46.1 µM] | -8% | . | ? | 6% | . | 11% | -4%
CC(=O)Oc1cccc(N2C(=O)C3C(C2=O)C2C=CC3C23CC3)c1 (stereo not given) | 20% | 9% | 2.2% | -17% | -1% | 13% | -1% | ?
CNCC(O)Cn1c2c(c3ccccc31)CCCC2 (stereo not given) | -26% | -13% | . | ? | 1% | . | 1% | 3%
Cc1ccccc1NC(=O)CSc1nnc2ccc(-c3ccncc3)nn12 | 17% | 1% | . | -17%[46.1 µM] | 74% | . | -10% | .
CCOc1ccc(NC(=O)CCCc2nnc3n(C)c(=O)c4sccc4n23)cc1 | -3%[46.1 µM] | -1% | 0.6% | . | . | 6% | . | .
Cc1cc(-c2nc3ncccc3o2)ccc1NC(=O)c1ccc(Br)cc1 | -2%[46.1 µM] | -15% | 2.1% | -3%[46.1 µM] | . | 9% | . | .
Cc1cc(C)c2nc(SCC(=O)N3CCCCC3)c(C#N)cc2c1 | 8% | -1% | 0.2% | 9%&9%[46.1 µM] | 2% | -6% | 0% | 1%
O=C(NCCN1CCOCC1)c1ccc2c(c1)N(Cc1ccccc1F)C(=O)CS2 | -3% | -6% | -3.2% | -7% | -20% | -5% | -5% | ?
N#Cc1c(NC(=O)c2cnccn2)sc2c1CCCC2 | 0% | 23% | -13% | ? | -14% | 22% | -44% | 9%
